RGS16-Gao HTS = modulates binding between human RGS16 and Galphao. 0.38% of 220,000 active. bead-based flow cytometry RGS16-Galphao binding, fluorescence; actives lie on both sides. binding response (% of control), % at 10 µM. AID 1441;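 active = below 25% or above 175%, edge rows of some plates excepted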;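 note: Galphao activated by GDP with aluminum fluoride before binding; 100% = wells without compound and 0% = beads without RGS; some results beyond the cut were filed as inactive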
Target sequence (O15492 whole entry, looked up): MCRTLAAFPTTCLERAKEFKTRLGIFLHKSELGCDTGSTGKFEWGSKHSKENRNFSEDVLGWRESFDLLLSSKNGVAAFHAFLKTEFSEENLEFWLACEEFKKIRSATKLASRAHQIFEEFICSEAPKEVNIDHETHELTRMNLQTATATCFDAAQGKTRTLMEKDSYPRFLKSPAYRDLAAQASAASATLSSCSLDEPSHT
Target sequence (P09471 whole entry, looked up): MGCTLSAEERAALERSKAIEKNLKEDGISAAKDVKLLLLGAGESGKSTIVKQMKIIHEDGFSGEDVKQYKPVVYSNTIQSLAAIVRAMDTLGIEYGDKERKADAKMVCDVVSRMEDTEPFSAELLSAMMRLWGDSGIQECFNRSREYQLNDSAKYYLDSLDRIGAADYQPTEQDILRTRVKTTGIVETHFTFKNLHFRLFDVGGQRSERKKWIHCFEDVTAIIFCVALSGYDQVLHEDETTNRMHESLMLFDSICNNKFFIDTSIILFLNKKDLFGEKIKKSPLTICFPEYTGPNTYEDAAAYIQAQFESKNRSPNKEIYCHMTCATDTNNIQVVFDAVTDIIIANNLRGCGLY
GALR2 agonist = GALR2 (human) receptor agonism | O43603 | GALR2-expressing cells, agonist activation read-out | activation, %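 (tested at 5 µM)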 | 0.48% of 140,000 active | AID 803;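 active = above mean plus 3 SD of all compounds, about 5% in these data, not always enough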;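 note: 0% = vehicle buffer wells and 100% = reference agonist at full effect; tested in CHO reporter cells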
Target sequence (O43603 whole entry, looked up): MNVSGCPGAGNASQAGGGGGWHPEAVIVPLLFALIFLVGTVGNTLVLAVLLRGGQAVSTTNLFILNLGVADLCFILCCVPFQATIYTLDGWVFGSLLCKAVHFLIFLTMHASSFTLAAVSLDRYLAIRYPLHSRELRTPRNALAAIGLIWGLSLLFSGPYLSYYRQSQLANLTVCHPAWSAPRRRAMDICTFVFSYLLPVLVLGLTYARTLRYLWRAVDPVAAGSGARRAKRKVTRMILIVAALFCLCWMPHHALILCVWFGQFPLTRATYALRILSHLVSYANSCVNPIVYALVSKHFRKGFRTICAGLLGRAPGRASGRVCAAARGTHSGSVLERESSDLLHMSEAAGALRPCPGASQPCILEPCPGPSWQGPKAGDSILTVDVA
HSV replic up = increases HSV replication in cells. AID 1956. 0.005% of 220,000 active. HSV replication augmentation in cells, fold increase. maximum fold increase;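 active = peak rise of 1.5-fold or more in the series; tested in PC3 cells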;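 note: first round at 10 µM; read as green reporter fluorescence; hits show the peak of a series up to 25 µM; 1 = signal of infected wells without compound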
PKD1 kinase inh = inhibitors of human PKD1 kinase | inhibition, %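 (about 10 µM by stock and volumes)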 | Q15139 | 0.056% of 200,000 active | AID 797 | PKD1 kinase fluorescence polarization assay;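 active = inhibition of 50% or more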;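 note: controls were vehicle for no effect and a reference inhibitor for full effect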
INS promoter inh = TRM-6 insulin promoter activity inhibition. TRM-6 cells (human fetal islet line), insulin promoter-eGFP reporter, imaging; reporter expression induced with tamoxifen. inhibition, % at 2 µM. 0.9% of 130,000 active;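 active = inhibition above the mean plus 3 SD, with well images judged a real hit on visual review, cut at about 60% in these data, passing the limit was not always enough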
INS promoter inh cell count = recorded beside INS promoter inh, whose call it bears; normalized cell count, %; measured here: cell count, toxicity; reference of the scale not given here;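 cells exposed to compound for 48 h; stained nuclei by imaging scaled within each plate; lower means fewer cells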
HSV replic up primary fold = recorded beside HSV replic up, whose call it bears; fold increase; compound at 10 µM; measured here: primary screen fold increase 10 uM; tested in PC3 cells;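 GFP signal in the first replicate; 1 = infected wells without compound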
An asterisk follows results filed as active; i = inactive; . = no result given.

SMILES,GALR2 agonist,INS promoter inh cell count,PKD1 kinase inh,RGS16-Gao HTS,HSV replic up,INS promoter inh,HSV replic up primary fold
CCn1c(SCC(=O)NCCc2ccccc2)nnc1-c1cccs1,-1.7,.,4,96,i,.,0.85
CCCCN1C(C)=CC(=C2C(=O)c3ccccc3C2=O)C=C1C,.,.,1,96,i,.,0.94
O=C(N/N=C/c1ccncc1)C12CC3CC(CC(C3)C1)C2,.,153,-12,109,i,-33,0.9
N#Cc1ccc(OCCOCCNC2CCCC2)cc1,-0.4,68,-13,112,i,-9,0.93
CCc1ccccc1NC(=O)/C(C#N)=C\c1ccc(Sc2ccccc2)o1,-0.1,100,-3,105,i,3,0.89
CCOC(=O)c1c(-c2ccccc2)nc2ccc(Cl)cn12,-3.4,84,6,98,i,-24,0.79
Cn1c(=O)cc2c3c(c(N4CCCCC4)ccc31)C(=O)c1ccccc1-2,.,.,.,99,i,.,1.3
O=C(N/N=C/c1ccncc1)c1ccccc1OCc1ccc(Br)cc1,0.8,75,4,62,i,0,0.85
COc1ccc(C(C)=O)cc1COc1cc(C)c(Cl)c(C)c1,.,.,.,101,i,.,1.1
O/N=C\c1cccn1-c1ccc(Br)cc1,-1.7,72,2,98,i,-31,0.98
CS(=O)(=O)N1CCC(C(=O)Nc2cccc(C(F)(F)F)c2)CC1,-1.1,125,10,99,i,3,0.99
O=C(O)CCC(=O)NCCn1c(-c2ccccc2)csc1=Nc1ccccc1,-0.7,.,-10,98,i,.,1

Remaining list, next part.
SMILES,GALR2 agonist,INS promoter inh cell count,PKD1 kinase inh,RGS16-Gao HTS,HSV replic up,INS promoter inh,HSV replic up primary fold
Nc1nc(SCC(=O)Nc2ccc(Cl)cn2)n[nH]1,.,67,-4,121,i,-15,0.87
CC(C)(C)c1cc(C(=O)N/N=C/c2ccccc2O)n(-c2ccccc2)n1,1.2,111,1,93,i,-45,0.78
CCOc1ccc(-c2onc(C(F)(F)F)c2-c2cscn2)c(O)c1,-0.6,110,-1,101,i,30,0.95
Cc1cc(C(=O)NC2CCCC2)on1,-0.5,.,-6,101,i,.,0.89
Cn1cccc1/C=C(/C#N)C(N)=S,-0.9,88,2,99,i,16,0.96
COC(=O)c1ccccc1NC(=O)C12CCC(C)(C(=O)O1)C2(C)C (centres undefined),-1.7,160,0,102,i,-5,0.98
CCCN(c1ccc(OCC)cc1)c1ncnc2nc[nH]c12,0.0,.,-11,85,i,.,0.87
O=C(N/N=C/c1cccc([N+](=O)[O-])c1)c1ccc(Br)cc1,.,129,4,103,i,50,0.88
COC(=O)c1cccc(Nc2nc3ccccc3nc2C)c1,-2.2,.,-5,106,i,.,0.8
O=C(CSc1nnnn1C1CCCCC1)NCc1ccc2c(c1)OCO2,-1.1,85,-1,78,i,6,0.77
CCCCCn1c(SCCC(C)C)nc2c1c(=O)[nH]c(=O)n2C,0.8,93,-4,104,i,45,0.93
CC12CCC(C[N+](C)(C)C1)C2(C)C (centres undefined),.,79,0,102,i,7,0.98

Remaining list, next part.
SMILES,GALR2 agonist,INS promoter inh cell count,PKD1 kinase inh,RGS16-Gao HTS,HSV replic up,INS promoter inh,HSV replic up primary fold
COc1cc2c(cc1OC)C1(CCCC1)C(N)=C2C#N,-0.2,62,-3,102,i,38,1.1
CCOC(=O)N1CCc2c(sc(NC(=O)Cc3ccccc3)c2C(=O)c2ccc(OC)cc2)C1,.,.,.,102,i,.,0.92
CCc1nnc(NC(=O)c2ccc(Cl)c(S(=O)(=O)N3CCc4ccccc43)c2)s1,-1.6,.,-7,107,i,.,0.98
CCOC1Cc2ccccc2N(C(N)=O)c2ccccc21 (centres undefined),3.4,94,4,108,i,6,1.3
CN(C)S(=O)(=O)c1ccc(C(=O)NCCSc2ccccc2)cc1,-0.7,109,0,109,i,-23,0.92
Clc1ccc(-n2ncc3c(NCc4cccs4)ncnc32)cc1,-1.3,.,4,100,i,.,0.76
COC(=O)CN(C#N)c1nc(NC(C)C)nc(OC)n1,-1.5,45,1,95,i,-138,0.95
CCCOC(=O)Nc1nc2ccccc2o1,-2.4,101,-20,105,i,-20,1.2
CC1(C)CC(N=c2cc(-c3ccccc3)oc3ccc(Cl)cc23)CC(C)(C)N1,.,59,-3,217,i,-57,0.62
N#Cc1nc(-c2cccs2)oc1NCCN1CCOCC1,-1.5,.,-5,136,.,.,.
CCOc1ccc(CCNC(=O)CN2CCN(Cc3ccc(F)cc3)C2=O)cc1OCC,-2.0,40,1,197,i,-61,0.96
CC(C)C1Oc2ccccc2N(CC(=O)N(Cc2ccncc2)Cc2ccco2)C1=O (centres undefined),-0.8,129,-3,120,i,-25,0.88

Next entries.
SMILES,GALR2 agonist,INS promoter inh cell count,PKD1 kinase inh,RGS16-Gao HTS,HSV replic up,INS promoter inh,HSV replic up primary fold
Cc1ccc(NC(=O)C2CCCN2S(=O)(=O)c2ccc3c(c2)n(C)c(=O)c(=O)n3C)cc1 (centres undefined),.,.,.,100,i,.,0.94
S=c1[nH]nc(CSCc2ccccc2Cl)n1C1CCCCC1,.,.,-7,98,i,.,1.1
CC1CCCC(NC(=O)COC(=O)c2c[nH]c(=O)[nH]c2=O)C1C (centres undefined),-3.5,84,-10,100,i,16,0.86
CC(C)(C)NC(=O)NCC1CCCC1NC(=O)NC(C)(C)C (centres undefined),.,.,.,107,i,.,0.96
O=C1c2cccc3cccc(c23)C(=O)N1/N=C/c1ccc(O)cc1O,0.4,108,-3,101,i,-10,0.81
CCOC(=O)c1c(NC(=O)c2ccc(S(=O)(=O)N3CCOCC3)cc2)sc2c1CCN(C)C2,3.5,100,0,99,i,-60,0.73
COc1ccccc1NC(=O)Cn1cnc2sc(C)c(S(=O)(=O)N3CCCCC3)c2c1=O,-2.0,91,5,99,i,-421,0.99
COC(=O)Cn1c(=O)c(C)nc2ccccc21,.,67,-5,109,i,18,0.92
C=CCNC(=O)c1cc(-c2ccc(Br)cc2)on1,-1.8,86,-10,102,.,-25,.
CN(Cc1ccccc1)C(=O)COc1ccccc1,-3.8,122,-3,101,i,-66,1
COc1cc(OC)cc(C(=O)N[C@H](C(=O)OCC(=O)Nc2ccc(C(N)=O)cc2)C(C)C)c1,0.0,79,-2,150,i,-16,0.87
CCC1CCc2c(sc(NC(=O)C3c4ccccc4Oc4ccccc43)c2C(N)=O)C1 (centres undefined),0.2,.,-4,97,i,.,1

Some of the entries above, reformatted.
Order of values – GALR2 agonist, INS promoter inh cell count, PKD1 kinase inh, RGS16-Gao HTS, HSV replic up, INS promoter inh, HSV replic up primary fold
- COC(=O)Cn1c(=O)c(C)nc2ccccc21
→ ., 67, -5, 109, i, 18, 0.92
- Cc1ccc(NC(=O)C2CCCN2S(=O)(=O)c2ccc3c(c2)n(C)c(=O)c(=O)n3C)cc1 (centres undefined)
→ ., ., ., 100, i, ., 0.94
- CC1CCCC(NC(=O)COC(=O)c2c[nH]c(=O)[nH]c2=O)C1C (centres undefined)
→ -3.5, 84, -10, 100, i, 16, 0.86
- CC(C)(C)NC(=O)NCC1CCCC1NC(=O)NC(C)(C)C (centres undefined)
→ ., ., ., 107, i, ., 0.96
- CCC1CCc2c(sc(NC(=O)C3c4ccccc4Oc4ccccc43)c2C(N)=O)C1 (centres undefined)
→ 0.2, ., -4, 97, i, ., 1
- CN(Cc1ccccc1)C(=O)COc1ccccc1
→ -3.8, 122, -3, 101, i, -66, 1

(further entries)
SMILES,GALR2 agonist,INS promoter inh cell count,PKD1 kinase inh,RGS16-Gao HTS,HSV replic up,INS promoter inh,HSV replic up primary fold
CN(NC(=O)c1ccccc1F)c1ncccc1[N+](=O)[O-],.,.,.,104,i,.,1
COc1ccc(NC(=O)Nc2ccc(C)cc2OC(F)F)cc1OC,-1.7,99,-3,104,i,-36,0.99
COc1cccc(N2CCN(Cc3ccsc3)CC2)c1,-0.5,.,-6,97,.,.,.
Cc1cc(C(=O)OCC(=O)NCc2ccccc2)c(C)o1,.,115,7,96,i,12,1.2
CCOC(=O)c1c(C)oc2ccc(OCC(=O)C(C)(C)C)cc12,-4.5,112,-14,97,i,18,0.76
CCC(C(=O)OCC(=O)Nc1ccc(SC(F)F)cc1)c1ccccc1 (centres undefined),-0.2,.,-14,123,i,.,1.1
CCOC(=O)CC1=C(C(=O)OCC)C(c2ccc(OC)c(OC)c2)C(C#N)=C(N)O1 (centres undefined),0.0,179,-1,102,i,-24,0.9
CC(CCc1ccccc1)NC(=O)Cc1ccccc1 (centres undefined),-0.1,114,-1,98,i,-20,0.92
CCOc1ccc(CNC(=S)N/N=C/c2ccncc2)cc1,0.6,113,5,92,i,11,0.93
Nc1cc(C(=O)c2cccs2)ccc1Cl,-1.0,.,1,.,i,.,0.82
COc1ccc(-c2cc(CNC(=O)CN(C)Cc3ccccc3)on2)cc1,-1.8,140,-3,102,.,-10,.
CCOc1ccc(C2/C(=C(\O)c3ccc(OC)c(OC)c3)C(=O)C(=O)N2c2cc(C)on2)cc1OC (centres undefined),-0.3,.,6,100,i,.,0.96

Later entries.
SMILES,GALR2 agonist,INS promoter inh cell count,PKD1 kinase inh,RGS16-Gao HTS,HSV replic up,INS promoter inh,HSV replic up primary fold
CCOCCN1CCN(C(=O)CN2CCCC2=O)CC1,-0.7,93,-8,107,i,-8,0.98
O=C(NCc1ccc2c(c1)OCO2)c1ccc(S(=O)(=O)C(F)F)cc1,.,58,4,105,i,-28,1.1
CCCCN(C)Cc1c(C)[nH]c2ccccc2c1=O,.,.,2,98,i,.,1
CC1=Nc2cc(C(=O)O)ccc2Sc2ccc(Br)cc21,-2.4,110,-2,106,.,-32,.
CC(C)c1cc(C(N)=O)c(NC(=O)C2CCC2)s1,-1.2,103*,-1,100,i,81*,0.98
CCCn1cc(S(=O)(=O)CC(=O)Nc2ccc(OC)cc2OC)c2ccccc21,0.1,84,-7,93,i,-414,1
CN1CCN(CCC(=O)N/N=C/c2cc([N+](=O)[O-])ccc2O)CC1,-1.8,119,-3,45,i,-4,0.97
CCC(C)(C)NC(=O)C(c1ccccc1)N(Cc1cccnc1)C(=O)c1csnn1 (centres undefined),-3.0,100,0,.,i,19,1
Cn1cc(CC(=O)NCCCN2CCCC2=O)c2ccccc21,.,.,-17,91,i,.,1.1
COCCNC(=O)c1ccc2c(c1)nc(C)n2-c1cccc(F)c1,-1.4,115,-3,104,i,-8,1
O=C(c1ccco1)N1CCN(c2ncccn2)CC1,-2.9,.,2,106,i,.,1.1
COc1ccc(OC)c(-c2cc(C(=O)Nc3c(C)nn(Cc4ccccc4Cl)c3C)no2)c1,0.3,59,-8,102,i,-40,0.72

The list continues.
SMILES,GALR2 agonist,INS promoter inh cell count,PKD1 kinase inh,RGS16-Gao HTS,HSV replic up,INS promoter inh,HSV replic up primary fold
COc1cc(CCN2C(=O)c3cccc4cccc(c34)C2=O)c(S(=O)(=O)NCCO)cc1OC,0.6,.,-4,103,i,.,0.82
Cc1ccc(-n2ncc(Cl)c2C(=O)NC2CC2)cc1,.,.,0,105,i,.,0.94
CC1CCc2cc(F)ccc2N1C(=O)C12CCC(C)(C(=O)O1)C2(C)C (centres undefined),.,109,3,102,i,11,0.98
c1ccc2c(c1)nc(N1CCCCC1)c1ccccc12,.,.,.,102,i,.,0.93
O=C(N/N=C/c1ccccc1C(F)(F)F)c1ccc(O)cc1,.,.,-4,89,i,.,0.96
Cc1ccc(CC(=O)N2CCC(c3nc4c(nnn4Cc4ccccc4)c(=O)[nH]3)CC2)cc1,-1.1,.,2,97,i,.,1
CCN1C(=O)/C(=C/c2cccs2)S/C1=N\S(=O)(=O)c1ccc(C)cc1,1.5,99,6,103,i,14,1.2
Cn1c(=O)c2c(SC3CCCC3)nc(C3CC3)nc2n(C)c1=O,0.1,.,-1,109,i,.,0.9

From PubChem BioAssay
